Screening results (PubChem)
Sa RN4220 lethal – growth inhibition of S. aureus RN4220, primary screen, OD600; 330,000 tested, 0.33% active; inhibition, % (concentration not given with the values); 16 h; AID 1259311, 2017;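 active = z-score of -3 or lower and OD600 up to 0.18 on both plates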;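 also: plate controls were untreated cells for no effect and reference antibiotic for full effect; stock transfer was 100 nL into about 80 µL; one replicate is shown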
BJeLR viability – MLPCN primary cell-based screen for lethality selective to Ras in HRASV12 cells; BJeLR (HRASV12) viability, CellTiter-Glo ATP luminescence, 48 h; reference of the scale not given here; inhibition, % (no concentration beside the values); 300,000 tested, 0.17% active; AID 1554, 2009;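 active = replicate mean above 50%; inconclusive = above 50% but judged a plate artefact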;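 also: 50 nL library stock added to about 25 µL; numbers are from one replicate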
PrP UTR inh – inhibition of PrP 5' UTR reporter expression. cell-based PrP 5' UTR mRNA reporter, plate reader. inhibition, % (concentration not given with the values). 340,000 tested, 0.35% active;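 active = every replicate at 50% or more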;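 also: 0 = median of the neutral control wells; tested in H4 reporter cells; numbers are from one replicate; inactives centre near -14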
ugtP null kill – growth inhibition of ugtP-null S. aureus, primary screen, RN4220 ugtP deletion, OD600. growth inhibition, % (no concentration beside the values). 16 h; some inactives read as strong as hits. 330,000 tested, 0.54% active;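 active = z-score under -3 and OD600 up to 0.15 on both plates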;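 also: plate controls were untreated wells for no effect and antibiotic for full effect; wells of about 80 µL received 100 nL stock; the first replicate is given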
Bead autofluor – compound fluorescence in toxin protease inhibitor counterscreen. compound autofluorescence counterscreen, microsphere flow cytometry; hits give high values. fluorescence intensity (concentration not given with the values). 360,000 tested, 3.1% active. AID 624483;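 active = at least 3 SD above the mean of all compounds, about 16000 in these data; inconclusive = too few beads counted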;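 also: 100 nL of 1 mM stock went into each well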
Mtb hypoxia rep – PubChem AID 1159583; M. tuberculosis hypoxia-regulated fluorescent reporter, fluorescence; fluorescence inhibition, % (test concentration not listed); 300,000 tested, 0.1% active;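 active = 35 to 45% if threefold the growth effect, above 45% if 1.5-fold the growth effect; inactive = the rest, general growth blockers included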;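 also: wells of about 50 µL received 100 nL stock; 0% = vehicle wells and 100% = reference inhibitor wells; whole bacteria with a GFP reporter of the hypoxia response; strong numbers were not always called active; many hits fall short of the cut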
Mtb hypoxia rep growth – second read-out of Mtb hypoxia rep, no call of its own (marks repeat the call); growth inhibition, %; measured here: M. tuberculosis growth (absorbance);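 0% = vehicle and 100% = reference antibiotic; read after six days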
* = called active by the depositor; ? = inconclusive; nt = not tested or not shown. Hits appear at their usual frequency; 4% or so of the library scored in one or more.

molecule | Sa RN4220 lethal | BJeLR viability | PrP UTR inh | ugtP null kill | Bead autofluor | Mtb hypoxia rep | Mtb hypoxia rep growth
Cc1ccc(-n2nc(C)c3c(C)c(CCC(=O)NCc4ccccc4)c(C)nc32)cc1 | -0.4 | -11 | -3 | -17 | 6015 | -10 | 1
CC(C)N1C(=O)/C(=C\c2nc3ccccc3c(=O)n2-c2ccccc2)c2ccccc21 | -2.1 | 2 | -3 | -5 | 10022 | 6 | 4
CC(C)c1ccc(-n2c(O)c(C=NCCN3CCNCC3)c(=O)[nH]c2=S)cc1 | -1.5 | 1 | 7 | 0 | 6698 | -8 | 1
Cc1nc2ccc(NC(=O)c3cccc(S(=O)(=O)N(C)c4ccccc4)c3)cc2s1 | 12 | -7 | -6 | -4 | 10546 | -4 | 5
COc1ccc(/C=N\NC(=O)c2cccc(F)c2)cc1COc1ccccc1 | nt | 54* | 28 | nt | 3621 | nt | nt
CCCCCOc1ccc(NC2=CC(=O)CCC2)cc1 | 1.5 | 3 | nt | 6 | 6428 | 9 | -7
O=C(NCCc1c[nH]c2ccccc12)c1ccc(Cl)cc1 | 1.6 | -1 | -66 | 0 | 3603 | -2 | 1
Cc1ccc2nsnc2c1S(=O)(=O)Nc1cccc2nsnc12 | 16 | -9 | -24 | 3 | 3227 | 11 | 12

Reprinted at random: 5 records from the list, in no set order.
molecule | Sa RN4220 lethal | BJeLR viability | PrP UTR inh | ugtP null kill | Bead autofluor | Mtb hypoxia rep | Mtb hypoxia rep growth
CCCCCOc1ccc(NC2=CC(=O)CCC2)cc1 | 1.5 | 3 | nt | 6 | 6428 | 9 | -7
O=C(NCCc1c[nH]c2ccccc12)c1ccc(Cl)cc1 | 1.6 | -1 | -66 | 0 | 3603 | -2 | 1
COc1ccc(/C=N\NC(=O)c2cccc(F)c2)cc1COc1ccccc1 | nt | 54* | 28 | nt | 3621 | nt | nt
Cc1ccc(-n2nc(C)c3c(C)c(CCC(=O)NCc4ccccc4)c(C)nc32)cc1 | -0.4 | -11 | -3 | -17 | 6015 | -10 | 1
Cc1nc2ccc(NC(=O)c3cccc(S(=O)(=O)N(C)c4ccccc4)c3)cc2s1 | 12 | -7 | -6 | -4 | 10546 | -4 | 5

Next part
molecule | Sa RN4220 lethal | BJeLR viability | PrP UTR inh | ugtP null kill | Bead autofluor | Mtb hypoxia rep | Mtb hypoxia rep growth
Cc1ccnc(NS(=O)(=O)c2ccccc2)n1 | 3.1 | 0 | -16 | 9 | 9233 | 10 | 5
COc1ccc(NC(=O)COC(=O)C2CCCCC2)c([N+](=O)[O-])c1 | 5.0 | 14 | -9 | -2 | 11187 | 12 | 6
CC(C)[C@H]1COCCS(=O)(=O)N1Cc1ccccc1-c1cccc2c1oc1ccccc12 | -4.5 | nt | -26 | -14 | 3381 | 1 | 3
CC(C)C(C(=O)N1CCN(Cc2ccccc2)CC1)c1ccccc1 (centres undefined) | 1.7 | -6 | -15 | 17 | 4254 | 11 | 15
Cc1ccccc1NC(=O)CCc1nnc2ccc(N3CCC4(CC3)OCCO4)nn12 | 1.3 | 9 | -5 | 0 | 5234 | 5 | 1
Cc1cccc(NC(=S)NNc2ncc(C(F)(F)F)cc2Cl)c1 | 8.8 | 2 | -23 | 4 | 2242 | 7 | 4
COCC(=O)Nc1ccc2nc3n(c(=O)c2c1)CCCCC3 | 1.3 | -3 | -11 | -1 | 4421 | -1 | 8
CCOc1ccc(N2CC(C(=O)N3CCCC3)CC2=O)cc1 (centres undefined) | 6.8 | -11 | -17 | 9 | 3512 | 1 | -12
CCn1cc(Br)c(C(=O)N2CCN(c3ccccc3)CC2)n1 | 5.1 | -5 | -6 | 9 | 9800 | -1 | 2
Cc1n[nH]c(=S)n1-c1ccc(Cl)cc1 | -0.3 | 0 | -13 | 0 | 3289 | 11 | 3
Cc1ccc([N+](=O)[O-])c(OCCN2C(=O)NC(C)(C)C2=O)c1 | -2.7 | -4 | 53* | 5 | 4026 | 4 | 10
CCC(=NCCc1c(C)[nH]c2ccccc12)C1=C(O)CC(c2ccccc2)CC1=O (centres undefined) | 1.7 | 24 | -54 | -14 | 2145 | 4 | 13
CC(C)(C)OC(=O)[C@H](Cc1ccccc1)NC(=O)c1nc[nH]c1C(=O)N1CCN(C(=O)OC(C)(C)C)CC1 | nt | 14 | -6 | nt | 3567 | nt | nt
COc1ccc(/C=N/OCC(=O)N2CCCC2)c(OC)c1 | nt | 0 | -13 | nt | 3080 | nt | nt
CC(C)Nc1ncnc2[nH]ncc12 | 6.2 | nt | -14 | 7 | 3477 | 17 | 8
Cc1cccc2cc(CN(Cc3ccccc3)C(=O)c3cccc(F)c3)c(Cl)nc12 | 6.2 | 1 | -25 | 33 | 8306 | 11 | 7
CCCCNC(=O)/C=C/c1ccc(S(=O)(=O)Nc2ccc(OC)cc2)cc1 | -2.5 | 3 | -17 | 3 | 2617 | 10 | 4
CCC(C)C(=O)Nc1cc([N+](=O)[O-])ccc1Cl (centres undefined) | 4.9 | -8 | -34 | 0 | 2194 | 9 | 13
O=C(CNC(=O)c1cccs1)N=Nc1c(O)[nH]c2ccc(Br)cc12 | 3.4 | -8 | -8 | 4 | 4725 | -2 | 1
O=C(Nc1cc(C(F)(F)F)ccc1F)C1CCC1 | -1.2 | -2 | -30 | -3 | 2423 | nt | nt
CCN(CC)S(=O)(=O)c1ccc(NC=C(C#N)C#N)cc1 | -7.9 | 8 | -8 | -5 | 3972 | 13 | 4
O=C(CNC(c1ccccc1)c1ccccc1)Nc1ccccc1Br | -3.5 | -6 | -7 | 8 | 4090 | 4 | 0
CCOC(=O)Cn1c(CN(Cc2ccccc2)Cc2ccccc2)nc2c1c(=O)n(C)c(=O)n2C | 1.6 | 6 | 5 | -19 | 20766* | -12 | 1
CC(C)c1ccc(C2(C)NC(=O)N(C(C)C(=O)Nc3ccc(N4CCOCC4)cc3)C2=O)cc1 (centres undefined) | 4.0 | nt | 6 | 8 | 5958 | 0 | 1
O=C(c1cccc(S(=O)(=O)N2CCCC2)c1)c1nnc(-c2ccncc2)o1 | 4.2 | 0 | -11 | 6 | 9411 | 15 | 8
CC1=C(C)CC(C(=O)NNC(=O)c2csc3c2CCC(C(C)(C)C)C3)C(C(=O)O)C1 (centres undefined) | 9.5 | 0 | -14 | 43 | 2483 | 12 | 4
CCCNC(=O)c1ccc2c(c1)nc(C)n2-c1cccc(C)c1 | -3.7 | 9 | 1 | 8 | 3406 | -4 | 6
Cc1oc(-c2ccc(Cl)cc2)nc1CS(=O)CC(=O)NCc1ccccn1 (centres undefined) | -0.4 | -4 | -5 | 7 | 5489 | 1 | 6
Cc1ccc(S(=O)(=O)N(CCCO)CC(O)CON=C2c3ccccc3-c3ccccc32)cc1 (centres undefined) | 2.3 | -19 | -20 | -13 | 3021 | -1 | 2
CC(=O)c1ccccc1NC(=O)c1ccc(OCc2c(C)noc2C)cc1 | 4.6 | nt | -6 | 0 | 3001 | -1 | 9
O=C(Cc1ccccc1)Oc1ccc([N+](=O)[O-])cc1 | -1.5 | -10 | -12 | 5 | 4180 | -4 | -5
O=C(c1cc(Cl)ccc1Cl)N1CCOCC1 | 3.8 | 6 | -12 | 8 | 11299 | 3 | 4

Quoted from the listing:
CCn1cc(Br)c(C(=O)N2CCN(c3ccccc3)CC2)n1 – Mtb hypoxia rep growth = 2
CCOC(=O)Cn1c(CN(Cc2ccccc2)Cc2ccccc2)nc2c1c(=O)n(C)c(=O)n2C – BJeLR viability = 6

Carrying on:
molecule | Sa RN4220 lethal | BJeLR viability | PrP UTR inh | ugtP null kill | Bead autofluor | Mtb hypoxia rep | Mtb hypoxia rep growth
CCCCCCCCOC(=O)C(NC(=O)CCC(=O)Nc1ccc(S(N)(=O)=O)cc1)C(O)c1ccccc1 (centres undefined) | 4.5 | 4 | -6 | -2 | ? | 9 | 8
O=C(Cc1ccc(-c2ccccc2)cc1)Nc1ncccc1O | 5.3 | 4 | -34 | 4 | 4126 | 8 | -1
Cc1ccc(N=C2NC(=O)/C(=C\c3ccco3)S2)cc1 | -2.6 | -5 | -63 | -12 | 2092 | -5 | -9
CC(=O)CCn1cnc([N+](=O)[O-])n1 | -1.6 | -3 | -12 | 19 | 2462 | 6 | 17
CCN(Cc1ccccc1)C(=O)CN1C(=O)COc2ccc(S(=O)(=O)NC3CCCC3)cc21 | 1.0 | 7 | -21 | 4 | 5767 | 7 | 8
Cc1nc2c(sc(=S)n2Cc2ccco2)c(=O)n1CC(=O)Nc1ccc(F)cc1 | 1.3 | 6 | -14 | -5 | 5523 | 6 | -3
Oc1c(Br)cc(Br)cc1/C=N/n1c(-c2ccccc2)n[nH]c1=S | nt | 0 | -8 | nt | 4046 | nt | nt
CCOC(=O)N1CCN(C(=S)Nc2ccc(C)cc2C)CC1 | 5.9 | 9 | -32 | -1 | 2144 | 6 | 3
Cc1c(CCCN)c2ccccc2n1Cc1ccccc1 | -7.7 | -4 | -5 | -2 | 4453 | 18 | 6
CN(C)c1ccc(C=C2C=CC=C2)cc1 | 8.7 | nt | -67 | 2 | 3905 | 7 | 2
COC(=O)C1CC2CCC(O)CC2N1Cc1ccc(-c2ccccc2)cc1 (centres undefined) | 9.7 | nt | nt | 2 | nt | 3 | 4
C/C(=N\NC(=O)COc1ccccc1[N+](=O)[O-])c1cccs1 | nt | -10 | -55 | nt | 4926 | nt | nt
O=C(CSc1nc2ncc(Br)cc2[nH]1)c1cccc([N+](=O)[O-])c1 | 8.2 | -10 | -12 | 4 | 2441 | 5 | -7
O=C(CCNC(=O)OCC1c2ccccc2-c2ccccc21)NOCc1ccccc1 | 3.7 | nt | -22 | 11 | 3727 | 11 | 14
Cn1c(-c2ccccc2)cnc1SCc1nc2ccccc2c(=O)[nH]1 | 5.6 | 4 | -41 | -3 | ? | 10 | 8
O=c1c2nccnc2[nH]c(=S)n1Cc1ccccc1Cl | 4.8 | 0 | -7 | 9 | 3759 | 3 | 3
CCN(CC(=O)Nc1c(F)cccc1F)C(=O)c1cc([N+](=O)[O-])ccc1N1CCOCC1 | 4.0 | -6 | -15 | 4 | 7796 | -1 | -5
Cc1nc2cc(C(F)(F)F)ccc2n1C | -1.1 | -2 | -28 | 2 | 5818 | 11 | 11
Cc1c(Cl)cccc1S(=O)(=O)Nc1ccnn1C | 13 | 0 | -24 | -2 | 5996 | 4 | 1
CCC(C)N(C(=O)COc1ccc(Br)cc1C=O)C1CCS(=O)(=O)C1 (centres undefined) | 1.9 | 4 | -5 | -2 | 5233 | -3 | 0
CCOP(=O)(OCC)C(NC(=O)Nc1ccc(C)cc1)C(N)=O (centres undefined) | 2.7 | -7 | nt | 12 | 4535 | -5 | -12
CCOC(=O)c1c(NC(=O)CSc2nnc3c(Cl)cc(Cl)cn23)sc2c1CCC2 | 11 | 9 | -13 | -20 | 7929 | 3 | 5
COc1ccc(NC(=O)C2CC(=O)N(c3cc(C)ccc3C)C2)cc1 (centres undefined) | 3.7 | -5 | -15 | -5 | 2585 | 5 | 3
S=C(Nc1ccc(Br)cc1)Nc1ccc2c(c1)OCCO2 | -4.1 | -2 | -44 | 5 | 5546 | 17 | 8
CCCCN(C)CCNC(=O)C(NC(=O)C1CCC(C)CC1)C(C)C (centres undefined) | 1.7 | 15 | -18 | 6 | nt | 10 | 9
OCCNCC(O)Cn1c2ccccc2c2ccccc21 (centres undefined) | -0.1 | -1 | -4 | -7 | 4217 | -2 | 16
O=c1c2ccccc2ncn1-c1ccc(Br)cc1[N+](=O)[O-] | 3.6 | 11 | -12 | 5 | 3295 | -4 | 8
O=C(Nc1ccccc1F)Oc1cccc(OC(=O)Nc2ccccc2F)c1 | 5.3 | -6 | -29 | 5 | 3539 | 0 | 3
